KCNQ2 enhance = enhances the rat KCNQ2 potassium channel | O88943 | CHO-K1 KCNQ2, FluxOR thallium flux fluorescence; stronger effect = higher value | B-score at 10 µM | 0.54% of 310,000 active;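 active = fluorescence ratio B-score at least 3 SD of library B-scores, with initial fluorescence B-score within 3 SD, cut at about 5.3 in these data; same plate scores as AID 2156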;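 also: B-score of peak minus minimum over baseline fluorescence ratio after K+ and Tl+ stimulus; positive B-score means potentiation of KCNQ2 with more thallium influx and brighter signal; only the inactives scoring about 0 or higher are listed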
Target sequence (O88943 whole entry, looked up): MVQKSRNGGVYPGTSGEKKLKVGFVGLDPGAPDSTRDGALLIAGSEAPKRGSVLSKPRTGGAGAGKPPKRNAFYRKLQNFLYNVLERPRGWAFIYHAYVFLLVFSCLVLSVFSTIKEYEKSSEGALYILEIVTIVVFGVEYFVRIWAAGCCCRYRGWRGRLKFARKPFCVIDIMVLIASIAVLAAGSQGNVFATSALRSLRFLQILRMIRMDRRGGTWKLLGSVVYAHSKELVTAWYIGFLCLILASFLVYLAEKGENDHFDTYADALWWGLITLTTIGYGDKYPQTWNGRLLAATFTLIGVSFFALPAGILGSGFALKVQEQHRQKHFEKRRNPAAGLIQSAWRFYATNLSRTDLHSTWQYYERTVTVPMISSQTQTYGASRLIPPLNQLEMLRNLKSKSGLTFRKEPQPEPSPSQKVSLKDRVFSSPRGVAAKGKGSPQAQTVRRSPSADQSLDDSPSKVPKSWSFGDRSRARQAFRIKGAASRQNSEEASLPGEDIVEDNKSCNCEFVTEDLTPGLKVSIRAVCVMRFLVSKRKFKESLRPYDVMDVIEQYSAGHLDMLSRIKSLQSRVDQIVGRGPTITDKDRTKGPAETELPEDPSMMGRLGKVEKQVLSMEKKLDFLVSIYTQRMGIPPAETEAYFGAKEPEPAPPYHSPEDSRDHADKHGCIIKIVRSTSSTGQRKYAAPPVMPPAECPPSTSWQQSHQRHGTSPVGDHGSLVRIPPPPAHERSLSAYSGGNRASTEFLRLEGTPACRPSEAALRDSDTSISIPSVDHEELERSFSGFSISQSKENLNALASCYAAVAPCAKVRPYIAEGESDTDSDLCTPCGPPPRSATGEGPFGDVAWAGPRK
KCNQ2 enhance baseline = second read-out of KCNQ2 enhance, no call of its own (marks repeat the call); B-score; compound at 10 µM; measured here: initial fluorescence intensity artifact check;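 brightness before thallium and not channel activity; 0 = typical well and far values either way flag optical interference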
An asterisk follows results filed as active. These rows are one share of the data; the hit share may differ from the screen's.

SMILES,KCNQ2 enhance,KCNQ2 enhance baseline
O=C(O)C1C2C=CC3(CN(CC(O)COc4ccccc4)C(=O)C13)O2 (stereo not drawn),0.08,0.13
Cn1c(Cn2c(=O)sc3ccccc32)nnc1SCc1ccccc1,2.1,1.8
Cc1ccc(S(=O)(=O)N2CCC(C(=O)NC3CCCCC3C)CC2)cc1 (stereo not drawn),0.01,2
Clc1nnc(N/N=C/c2ccccc2)c2ccccc12,0.13,1.1
CCn1c(CSc2ncccn2)nnc1SCC(=O)N1CCc2ccccc21,0.96,-0.13
CC1(CCc2ccccc2)NC(=O)N(CC(=O)N2CCCCCC2)C1=O (stereo not drawn),0.16,-0.36
COCCCNC(=O)C1C2C=CC3(CN(Cc4ccc(C)cc4)C(=O)C13)O2 (stereo not drawn),0.02,-0.34
CC(OC(=O)CNC(=O)c1ccc(Cl)cc1)C(=O)NC1CCCCC1C (stereo not drawn),1.9,-0.62
CC1CN(c2ccc(Cl)cc2)c2nc3c(c(=O)[nH]c(=O)n3C)n2C1 (stereo not drawn),5.1,0.33
CCOC(=O)N1CCC(Nc2c(NCCN3CCN(Cc4ccccc4)CC3)c(=O)c2=O)CC1,0.56,-0.1
COc1ccc(CSC2=CS(=O)(=O)c3ccccc3N2)cc1,0.25,-2.7
COc1ccc2[nH]c(=O)c(CN(C(C)=O)c3cccc(C)c3)cc2c1,1.9,-0.82
COc1cccc(CNCCNC(=O)c2ccco2)c1OC,2.8,0.06
CCC(=O)N1c2ccc(S(=O)(=O)CCC(=O)Nc3nccs3)cc2CC1C (stereo not drawn),0.54,-0.41
Cc1ccc(NC(=O)CSc2nc3c(cc2C#N)C(=O)CCC3)cc1S(=O)(=O)N(C)C,0.35,1.8
O=C(/C=C/NNC(=O)c1ccccc1)c1ccccc1,3.9,-0.1
CCCCn1c(=N)n(CC(=O)c2ccco2)c2ccccc21,2.2,-1.1
CS(=O)(=O)Cc1ccc(C(=O)NCC2(N3CCCCC3)CCCCC2)cc1,1.4,0.03
Cc1cc(=O)n2nc(N3CCCC(C(=O)NCCc4ccc(Cl)cc4)C3)sc2n1 (stereo not drawn),1.4,1.8
Cc1ccc(S(=O)(=O)N2CC3(C)CN(S(=O)(=O)c4ccc(C)cc4)CC(C)(C2)C3=O)cc1,1.3,-0.13
COc1cc(/C=N/Nc2nc3ccccc3[nH]2)ccc1O,0.44,2.8
C[C@@H]1C2CC(C/C2=N\NC(=O)c2ccncc2)C1(C)C (stereo partly drawn),0.76,0.68
CC(NC(=O)NNC(N)=S)(C(F)(F)F)C(F)(F)F,0.86,-0.66
CCOc1ccc(OCC(=O)NCCS(=O)(=O)N2CCN(c3ccc(F)cc3)CC2)cc1,0.16,-0.57
O=C(NCCN1CCOCC1)c1cc(-c2ccccc2Cl)on1,1.5,0.44
CCCc1nc2oc3c(NCCN4CCOCC4)ncnc3c2c2c1CCCC2,1.5,0.98
CC(C)(C)c1ccc(OCC(=O)O)cc1,0.24,0.7
Cc1cc(C)cc(NC(=O)CSc2ccccc2)c1,0.15,0.29
CCn1c(SCC(=O)OC(C)C)nnc1-c1cccc(Cl)c1,0.01,-1
COc1ccc(NC(=O)CC2SC(=NCC3CCCO3)NC2=O)c([N+](=O)[O-])c1 (stereo not drawn),1.4,0.33
O=C(C1CCCN(Cc2ccccc2)C1)N1CCCCC1 (stereo not drawn),1.2,-0.17
CC(C)c1ccc(C2N3CC4([N+](=O)[O-])CN2CC([N+](=O)[O-])(C3)C4(C)C)cc1 (stereo not drawn),1.6,0.06
COc1ccc(C2(CNC(=O)CCC(=O)O)CCCC2)cc1OC,0.23,0.29
CC(C)(C)c1cccc(Oc2nn[nH]n2)c1,0.98,4.5
C[N+]1(C)CCC(OC(=O)C(O)(c2ccccc2)C2CCCC2)C1 (stereo not drawn),0.57,-0.62
NNC(=O)c1nc(-c2ccccc2)n2c1CCCCC2,0.88,-0.5
CC1(C)CC(=O)C2=C(C1)N(CC1CCCO1)C(=O)C2(O)C(F)(F)F (stereo not drawn),1.3,-1.4
Cc1ccc(-c2cc(C(F)F)n3ncc(C(=O)Nc4ccc(S(=O)(=O)Nc5ccccc5C)cc4)c3n2)cc1,0.83,-0.54
CCOC(=O)N1CCN(c2c(NCc3ccc(N(C)C)cc3)c(=O)c2=O)CC1,1.5,-0.3
COc1ccc(NC(=O)CN(C)C(=O)c2ccc3c(c2)S(=O)(=O)N=C2CCCCCN23)cc1,0.73,1.1
CCNC(=S)N(CCc1c(C)[nH]c2ccccc12)Cc1cc(OC)c(OC)c(OC)c1,0.11,-2.1
Cc1ccc(C(=O)NCc2nc3ccccc3[nH]2)o1,0.52,0.59
O=C(NC(Nc1ncc(S(=O)(=O)c2ccc([N+](=O)[O-])cc2)s1)(C(F)(F)F)C(F)(F)F)c1ccc(Cl)cc1,1.2,-0.91
O=S(=O)(c1ccc(NC(=S)NCc2cccnc2)cc1)N1CCCCC1,0.31,1.4
COC(=O)c1cccc(NC(=O)CSc2nnc(COc3ccc(C#N)cc3)n2-c2ccccc2)c1,0.6,0.28
COc1cc2nc(N(CCCN(C)C)C(=O)c3ccc(S(=O)(=O)N(C)C4CCCCC4)cc3)sc2cc1OC,0.09,0.82
Cc1ccc(S(=O)(=O)N2c3ccccc3NC(=O)CC2C)cc1 (stereo not drawn),0.18,-0.13
CCOc1ccc(NC(=S)Nc2ccc(F)cc2)cc1,0.26,-1.8
O=C(Nc1sc2c(c1C(=O)O)CCCC2)c1ccc(Cl)cc1,7.9*,0.73*
COc1ccc(S(=O)(=O)N2CCCOC2CNC(=O)C(=O)NCCCN2CCOCC2)cc1C (stereo not drawn),0.67,-2

Next section.
SMILES,KCNQ2 enhance,KCNQ2 enhance baseline
CCNC1=C(Cl)C(=O)c2ccccc2C1=O,0.29,0.06
Cc1cc(C)n(-c2nc(NCCCN(C)C)c3c4c(sc3n2)CCCC4)n1,1.2,-1.4
COc1ccc(/C(C)=N/Nc2nncc3ccccc23)cc1,0.33,2.2
Cc1cc2cc(C)c(NCCNC(=O)c3cccc(F)c3)nc2cc1C,0.61,1.2
COc1ccc2oc3cc(C)[n+]([O-])c(-c4ccc(Br)cc4)c3c2c1,0.98,-0.02
Cc1cc(C)c(NC(=O)CNC(=O)CSc2nnc(N)s2)c(C)c1,0.97,-0.28
CSc1oc(-c2ccco2)nc1S(=O)(=O)c1ccccc1,0.3,0.14
O=C(CCNC(=O)c1ccc(Br)o1)NCc1ccccn1,0.25,-1.5
Cc1c(NC(=O)NCCN2C(=O)C3C4C=CC(C4)C3C2=O)c(=O)n(-c2ccccc2)n1C (stereo not drawn),1.3,-0.77
O=C(OCN1C(=O)c2ccccc2C1=O)c1ccco1,0.67,-1.4
COC(=O)CC1SC(=O)NC1=Nc1ccccc1 (stereo not drawn),0.03,-0.29
NC(=O)c1oc2ccccc2c1NC(=O)CN1CCCCC1,1,-0.86
Cc1cccn2c(=O)c3cc(C(=O)N4COCC4(C)C)n(C)c3nc12,1.1,0.78
COc1cccc(-c2onc3ccc(C(C)=O)cc23)c1,0.61,1
COC(=O)Nc1nn(Cc2ccccc2F)cc1Br,0.31,-2.7
NC(=O)C1CCN(C(=O)CCc2nc3ccccc3c(=O)[nH]2)CC1,1.8,-0.28
O=C(CCNC(=O)c1ccco1)Nc1ccc(C(F)(F)F)cc1,0.46,1.2
NC(=O)c1cc(C(=O)c2cccc(Cl)c2Cl)c[nH]1,0.75,-0.28
COc1ccc(Nc2nccc(-c3cccc(N)c3)n2)cc1,3,-1
Cc1occc1C(=O)NNC(=O)c1ccc(Br)o1,0.35,-0.76
NC(=O)Cn1c(=O)oc2ccccc21,0.65,0.38
CCCC(C)NC(=S)NC(=O)c1cc(S(=O)(=O)N2CCOCC2)ccc1C (stereo not drawn),0.02,0.82
O=C(CCCNS(=O)(=O)c1cccs1)N1CCN(c2cccc(Cl)c2)CC1,2.5,2.3
COc1ccccc1-c1c(C)nn2c(N3CCC4(CC3)OCCO4)cc(C)nc12,0.03,1.2
O=C(CNC(=O)c1ccco1)OCC(=O)c1ccc(Cl)cc1,0.06,-0.2
CCCN1Cc2cccc(C(=O)Nc3ccc(CC)cc3)c2C1=O,2.2,1.1
OCC[C@@H]1C[C@@H](O)[C@H](O)[C@@]2(OCc3ccccc32)O1,0.78,-1.9
CCOC(=O)C1CCN(S(=O)(=O)c2cc3c(cc2C)NC(=O)CO3)CC1,0.95,-1.5
Cc1cc(=O)oc(C)c1C(=O)NCCCN1CCN(c2ccccc2F)CC1,1,0.81
O=C(CNC(=O)c1ccccc1)NCC(=O)OCC(=O)c1ccccc1Cl,0.52,-0.16
COc1c(C(=O)NC(=S)Nc2nnn(C)n2)cc2ccccc2c1Br,0.61,-1.2
CCOc1cc(NC(=S)NC)c(OCC)cc1NC(=O)c1ccc(OC)cc1,0.73,-0.95
COc1ccc(NC2CC(=O)N(c3ccccc3)C2=O)cc1 (stereo not drawn),2.3,-0.69
Cc1ccc(N2C(=O)N(CC(=O)Nc3cc(F)ccc3C)C(=O)C2C)cc1 (stereo not drawn),2.4,-2.3
CCN1C(=O)/C(=c2\sc3nc(=O)c(Cc4ccccc4)nn3c2=O)c2ccccc21,1,2.6
Cc1ccccc1NC(=O)NCCc1nc2ccccc2[nH]1,0.57,-1.2
COc1ccc(-n2nc(C(=O)NCC(=O)N3CCN(c4ccccc4OC)CC3)c3ccccc3c2=O)cc1OC,0.36,1.5
COc1ccc(CNC(=O)c2cnc3scc(C)n3c2=O)cc1,0.94,-2.9
COc1cccc(C2c3[nH]c4ccccc4c3C[C@H]3C(=O)N(CCCCCO)CC(=O)N23)c1 (stereo partly drawn),2.3,0.19
CCOC(=O)c1c(C)n(CCNC(C)=O)c2ccc(O)cc12,2.2,-1.3
O=C(CCc1n[nH]c(=O)[nH]c1=O)N1CCCCC1,0.12,-1.3
CCCn1nc(NS(=O)(=O)c2cccc3nonc23)c2cc3ccccc3nc21,1.6,-2.7
COC(CNC(=O)c1ccc2c(c1)ncn2-c1ccc(C)cc1C)OC,0.8,-1.9
O=C1CC(N2CCC(c3nc4ccccc4[nH]3)CC2)C(=O)N1c1ccccc1F (stereo not drawn),1.5,-0.42
COCCNC(=O)/C(C#N)=C/C=C/c1ccccc1[N+](=O)[O-],0.88,0.45
Cc1ccc(/C=C/C(=O)Nc2nn[nH]n2)o1,1.4,0.01
CCOC(=O)c1ccc[n+](CC(=O)Nc2ccccc2OC(F)F)c1,0.85,0.59
CCOC(=O)N1CCN(c2nc(-c3ccc(Cl)cc3)cs2)CC1,0.69,-0.41
COc1cccc(C(C)NC(=S)NCc2ccc(Cl)cc2)c1 (stereo not drawn),0.34,-1.4
Cc1nc2ccc(NC(=O)c3cccs3)cc2s1,0.72,-1.5

More records:
SMILES,KCNQ2 enhance,KCNQ2 enhance baseline
Cc1ccccc1NC(=O)Cn1nc(-c2ccc(Cl)s2)ccc1=O,0.06,0.54
COc1ccc(CNC(=O)C2=CC(c3ccc(OC)c(OC)c3)=NS(=O)(=O)N2C)cc1,0.16,1.9
CCN1CCn2c3c(c4cc(Cl)ccc42)CCCC31 (stereo not drawn),2,-0.58
C/C(=N\Nc1nc(C)cc(C)n1)c1ccc(C)o1,0.65,-0.05
CC(C)CC1NC(=O)N(Cc2cc(=O)n3ccsc3n2)C1=O (stereo not drawn),0.37,-1.5
CN(CC(=O)Nc1ccccc1Br)C(=O)c1cc([N+](=O)[O-])ccc1N1CCOCC1,1.3,-0.22
O=C(O)CCCCn1c(SCc2cc(=O)n3cc(Cl)ccc3n2)nc2ccsc2c1=O,0.04,-1.5
CC(C)NC(=O)C1CCN(C2CCN(C(=O)Cc3ccc4c(c3)OCO4)CC2)CC1,0.2,0.71
CN(C(=O)COC(=O)c1ccc(Cl)cc1N)C1CCCCC1,0.32,0.6
Nc1cc(Cl)ccc1C(=O)OCC(=O)NC1CCS(=O)(=O)C1 (stereo not drawn),0.64,0

Structural class: the compounds so far with an aryl thioether with sulfur outside any ring (nine)
SMILES,KCNQ2 enhance,KCNQ2 enhance baseline
Cn1c(Cn2c(=O)sc3ccccc32)nnc1SCc1ccccc1,2.1,1.8
CCn1c(CSc2ncccn2)nnc1SCC(=O)N1CCc2ccccc21,0.96,-0.13
Cc1ccc(NC(=O)CSc2nc3c(cc2C#N)C(=O)CCC3)cc1S(=O)(=O)N(C)C,0.35,1.8
Cc1cc(C)cc(NC(=O)CSc2ccccc2)c1,0.15,0.29
CCn1c(SCC(=O)OC(C)C)nnc1-c1cccc(Cl)c1,0.01,-1
COC(=O)c1cccc(NC(=O)CSc2nnc(COc3ccc(C#N)cc3)n2-c2ccccc2)c1,0.6,0.28
Cc1cc(C)c(NC(=O)CNC(=O)CSc2nnc(N)s2)c(C)c1,0.97,-0.28
CSc1oc(-c2ccco2)nc1S(=O)(=O)c1ccccc1,0.3,0.14
O=C(O)CCCCn1c(SCc2cc(=O)n3cc(Cl)ccc3n2)nc2ccsc2c1=O,0.04,-1.5

Continuation:
SMILES,KCNQ2 enhance,KCNQ2 enhance baseline
CCNC(=S)NNC(=O)CC(C)C,1.1,-0.43
Cc1ccccc1C(=O)Nc1cccc(-c2ccc(N3CCOCC3)nn2)c1,1.2,-0.32
CCCCS(=O)(=O)Nc1ccc2cn[nH]c2c1,1.6,-0.87
O=CN1CCN(C(=O)c2ccc([N+](=O)[O-])cc2)CC1,0.39,-0.36
O=C(NNC(=O)c1cccs1)c1ccc(Cl)c([N+](=O)[O-])c1,0.66,0.03
